Screens from PubChem.
Mtb growth: M. tuberculosis H37Rv growth inhibitors, H37Rv strain (AID 1626). 0.95% of 220,000 active. one-dose inhibition, % at 10 µM; IC50 in µM for titrated hits. M. tuberculosis H37Rv growth inhibition; higher % means a stronger effect;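 active = confirmed in a dose series; inconclusive = inhibition above 80% but not taken into the dose series; inactive = below 80% or under 30% at every dose of the series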;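 note: bacteria incubated seven days before Alamar blue readout; 0% = bacteria only wells and 100% = bacteria with antibiotic wells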
Mtb betalactam: beta-lactam sensitization of Mtb H37Rv, H37Rv; M. tuberculosis H37Rv growth with meropenem, percent inhibition; hits of this screen are not shown here; inhibition, % at 25 µM; 0.27% of 330,000 active; AID 434955, 2010;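 active = about 74% or more and at least 40 points above the plate without the antibiotic, then above 30% in a dose series; inconclusive = first-round hits that could not be retested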;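 note: growth measured after seven days incubation then overnight dye step; 0% = bacteria only wells and 100% = bacteria with antibiotic; twin plates without the antibiotic show which effects depend on it; some results filed as inactive read as strong as hits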
RecA splice inh: Mtb RecA intein splicing inhibitors, primary screen, biochemical, fluorescence, HTS. 0.75% of 290,000 active. inhibition, %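 (about 9 µM by stock and volumes)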. cell-free RecA intein splicing. AID 2221, 2009; in the data active = inhibition above about 30%; inconclusive = no clear call, values can overlap the other calls;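 note: 0% = vehicle wells and 100% = reference inhibitor control wells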
Target sequence (P9WHJ3 whole entry, looked up, canonical isoform): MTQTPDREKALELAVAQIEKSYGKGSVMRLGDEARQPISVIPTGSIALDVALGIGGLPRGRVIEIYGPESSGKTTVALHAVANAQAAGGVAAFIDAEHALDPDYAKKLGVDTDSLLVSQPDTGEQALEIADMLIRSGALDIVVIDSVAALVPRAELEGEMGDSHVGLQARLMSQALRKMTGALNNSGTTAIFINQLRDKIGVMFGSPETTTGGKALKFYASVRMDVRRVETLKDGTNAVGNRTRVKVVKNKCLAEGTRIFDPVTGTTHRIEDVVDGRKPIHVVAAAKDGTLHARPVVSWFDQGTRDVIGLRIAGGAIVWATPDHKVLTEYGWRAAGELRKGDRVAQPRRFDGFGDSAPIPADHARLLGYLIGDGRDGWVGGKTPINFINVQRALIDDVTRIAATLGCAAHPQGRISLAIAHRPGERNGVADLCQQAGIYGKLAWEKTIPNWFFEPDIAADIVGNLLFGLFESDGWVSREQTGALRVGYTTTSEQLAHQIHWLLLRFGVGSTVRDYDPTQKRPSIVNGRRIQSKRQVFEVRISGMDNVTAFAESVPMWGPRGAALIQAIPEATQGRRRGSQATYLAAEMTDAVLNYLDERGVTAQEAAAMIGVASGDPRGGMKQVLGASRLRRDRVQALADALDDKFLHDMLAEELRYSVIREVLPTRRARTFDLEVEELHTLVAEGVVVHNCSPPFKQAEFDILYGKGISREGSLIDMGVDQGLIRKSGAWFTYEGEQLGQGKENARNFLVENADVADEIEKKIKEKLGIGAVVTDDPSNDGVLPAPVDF
YopH inh: YopH tyrosine phosphatase inhibitors, primary screen, biochemical, fluorescence Ex485/Em525; 0.16% of 140,000 active; YopH tyrosine phosphatase [Yersinia enterocolitica]; inhibition, %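 (about 10 µM by stock and volumes)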;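 active = inhibition of 50% or more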;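 note: controls were vehicle for no effect and minimum signal wells for full effect; inactives centre near -20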
Arbovirus anti: antivirals against arbovirus infection, primary screen, cell-based, full library, 10K replicate subset; 0.37% of 200,000 active; arbovirus infection cell-based antiviral screen; inhibition, % at 10 µM;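 active = inhibition from about 30%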;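 note: bluetongue infection of BSR cells; cell survival read as ATP light after 72 h; 0% = infected wells without compound and 100% = uninfected wells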
Arbovirus anti repeat: recorded beside Arbovirus anti, whose call it bears; inhibition, %; measured here: 10K subset replicate screen; many hits read low in the repeat;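 first of two repeat runs on a subset; 0% = infected and 100% = uninfected wells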
Numbers without * were called inactive; ? = inconclusive; / = not tested or not shown.

SMILES | Mtb growth | Mtb betalactam | RecA splice inh | YopH inh | Arbovirus anti | others
CCOC(=O)C(CSCc1ccccc1)NC(=O)OC(C)(C)C (stereo unspecified) | 5% | 63 | 4.3 | -29 | 0
O=S(=O)(N1CCCCC1)n1nnc2ccccc21 | 5% | 2 | -1.8 | -11 | 2
COc1cccc(C(C#N)N2N=C(C)CC2(C)C)c1O (stereo unspecified) | 5% | 0 | -2.6 | 15 | -1
CCCCc1cc(=O)oc2c(C)c(OCC(=O)N3CCC(C(=O)O)(c4ccccc4)CC3)ccc12 | / | 3 | -0.3 | / | /
COc1cc(SC)ccc1C(=O)N(Cc1ccccc1)c1ccccn1 | -12% | -1 | 3.5 | / | /
CCCN1CCC(Oc2cccc(C(=O)NCCc3ccccc3)c2)CC1 | / | -10 | 2.0 | / | /
COc1c(OC)c(O)c2c(=O)c(O)c(-c3ccccc3)oc2c1OC | 13% | 2 | 0.9 | / | 2
O=C1c2cccnc2C(=O)N1Cc1ccc(F)cc1 | -11% | -12 | -2.2 | -40 | 1
CCOC(=O)c1ccc(Oc2c(C)oc3cc(OS(C)(=O)=O)ccc3c2=O)cc1 | -8% | -7 | -3.4 | -36 | 5
CCn1c(=O)n(CC(=O)Nc2ccc(F)cc2)c(=O)c2ccccc21 | 2% | 3 | -0.7 | / | -1
COc1cc(OC)c(NC(=O)c2ccc(Br)o2)cc1Cl | -1% | 16 | 0.9 | -8 | 9 | Arbovirus anti repeat=-4
CCN1CC(CN(C)Cc2nc(-c3ccco3)oc2C)CC1=O (stereo unspecified) | 1% | 5 | 0.1 | / | 8
Cc1nc(NC(=S)NC(=O)c2cccs2)ccc1Br | 10% | 18 | 2.9 | -29 | 10
O=C1c2ccccc2C(=O)N1CCCCON1C(=O)c2ccccc2C1=O | -5% | -4 | -0.6 | -2 | 1
CCOC(=O)N1CCc2c(sc3nc4n(c(=O)c23)N=C(c2ccc(OC)cc2)CS4)C1 | -5% | 6 | -0.8 | / | /
COC(=O)c1ccc(-c2csc(NC(=O)c3ccc(S(=O)(=O)N4CCc5ccccc5C4)cc3)n2)cc1 | 2% | 4 | -0.4 | -15 | -14
Cc1ccc(C(=O)N/N=C2\CCCc3ccccc32)c(C)c1 | 2% | -2 | -2.3 | / | -2
O=C(/C=C/c1ccccc1)c1ccccc1 | 10% | 75 | -1.1 | -30 | -37
Cc1nnc2n1NC(c1ccc(Cl)cc1)C(C(=O)N1CCC(C)CC1)S2 (stereo unspecified) | -11% | 4 | 0.0 | -26 | 4
COC(=O)/C=C1\N/C(=N\c2nc(C)cc(C)n2)N(c2ccc(Cl)cc2)C1=O | -5% | 66 | 3.7 | / | /
COc1cccc(CN(C)C(=O)c2ccc(N3CCCC3)c([N+](=O)[O-])c2)c1 | / | 5 | 0.2 | / | /
O=C(N=C1SC2CS(=O)(=O)CC2N1c1cccc(F)c1)C1CC1 (stereo unspecified) | / | -4 | 3.1 | / | /
O=C(CN1C(=O)S/C(=C\c2ccc(O)cc2)C1=O)c1ccccc1 | 6% | 5 | 4.4 | / | -12
O=C(OCc1ccccc1)c1cnc(Cl)c(Cl)c1 | / | 96 | 0.6 | / | /
CCOCCCNC(=O)/C(C#N)=C/c1ccccc1F | 3% | -4 | -0.2 | / | 5

Entries shown so far that contain a furan ring, fused or not:
SMILES | Mtb growth | Mtb betalactam | RecA splice inh | YopH inh | Arbovirus anti | others
COc1cc(OC)c(NC(=O)c2ccc(Br)o2)cc1Cl | -1% | 16 | 0.9 | -8 | 9 | Arbovirus anti repeat=-4
CCN1CC(CN(C)Cc2nc(-c3ccco3)oc2C)CC1=O (stereo unspecified) | 1% | 5 | 0.1 | / | 8

The main list resumes; the 2 compounds before the break are reprinted first.
SMILES | Mtb growth | Mtb betalactam | RecA splice inh | YopH inh | Arbovirus anti | others
O=C(OCc1ccccc1)c1cnc(Cl)c(Cl)c1 | / | 96 | 0.6 | / | /
CCOCCCNC(=O)/C(C#N)=C/c1ccccc1F | 3% | -4 | -0.2 | / | 5
Cc1ccc(-c2noc(Cn3nc(C(=O)O)c4ccccc4c3=O)n2)cc1 | / | 7 | -1.6 | / | /
CC(=O)OCC(OC(C)=O)C(OC(C)=O)C(OC(C)=O)C(=O)Nc1ccc(C)cc1C (stereo unspecified) | -1% | 1 | 1.1 | -47 | 6
Cn1cc(S(=O)(=O)N2CCC(C(N)=O)CC2)c(=O)n(C)c1=O | -6% | -3 | -3.0 | / | 3
O=C(NCc1nc2ccccc2[nH]1)c1cccs1 | 9% | -2 | 0.5 | -41 | -4 | Arbovirus anti repeat=3
Clc1ccc(CN2C3=NCCN3c3ccccc32)cc1 | 2% | 6 | -0.5 | -45 | -3
COCC(O)CNc1ccccc1 (stereo unspecified) | 0% | -6 | -4.6 | -13 | 1
CCOC(=O)c1[nH]c2cc(OC)c(OC)cc2c1N | -7% | 9 | -13 | -14 | -8
Cc1cc(O)ccc1Nc1nc2ccccc2nc1Nc1ccc(O)cc1C | 8% | 15 | 3.8 | -7 | -39
CCCC(=O)NC(c1cccs1)c1cc([N+](=O)[O-])c2cccnc2c1O (stereo unspecified) | -6% | -3 | 6.6 | -4 | -32
CCn1c(Cc2ccccc2)nnc1SCC(=O)OC(C)C | -6% | -4 | 0.5 | -42 | 4
O=C(N=Nc1c(O)[nH]c2ccccc12)c1ccc2c(c1)OCO2 | 4% | 2 | -0.4 | / | -4
COc1ccc(Cl)cc1NC(=O)CN1C(=O)CC(C)S(=O)(=O)c2ccccc21 (stereo unspecified) | 7% | -5 | -0.5 | / | 3
O=C(NCCOc1cccnc1)c1ccc(OC2CCN(Cc3ccccn3)CC2)cc1 | / | -6 | -2.6 | / | /
Nc1nc(CN2CCN(c3ccccc3)CC2)nc(Nc2ccc(Cl)cc2)n1 | ? | 93 | 1.8 | / | -3
CC(=O)c1c(C)[nH]c(C(=O)CN2C(=O)NC(C)(CCC(C)C)C2=O)c1C (stereo unspecified) | 5% | 1 | / | / | -1
CCc1ccc(NC(=S)N2CCNC(=O)C2CC(=O)OC)cc1 (stereo unspecified) | -11% | 3 | 5.2 | / | 10
CCCOc1ccc(-c2c(C(=O)N/N=C/c3ccc(OC)cc3)nnn2-c2nonc2N)cc1 | 7% | 2 | 0.2 | -24 | -5
COc1cccc(-c2noc(CCCC(=O)NC3CCCC3)n2)c1 | / | 0 | 3.1 | / | /
CC(=O)Oc1ccccc1N(C(C)=O)S(=O)(=O)c1ccc(C)cc1 | 8% | 6 | 3.6 | / | 8
CC(C)Nc1nc(Cl)nc(NC(C)C)n1 | -1% | -6 | 1.8 | -19 | -2
Cn1cnnc1SCC(=O)N1N=C2/C(=C/c3ccco3)CCCC2C1c1ccco1 (stereo unspecified) | -7% | -23 | -2.4 | 10 | -7
CCC(=O)N1CCc2cc(OC)c(OC)cc2C1COc1ccc(F)cc1 (stereo unspecified) | / | -7 | 4.2 | / | /
Cc1ccc(S(=O)(=O)N2CCN(C(=O)CCC(=O)NCCc3ccc(F)cc3)CC2)cc1 | -4% | 3 | 2.4 | / | -4
O=C(N/N=C/c1ccc2c(c1)OCO2)c1sc2cccc(Cl)c2c1Cl | 48% | 57 | 1.9 | -25 | -21
O=C(CCn1cnnn1)N1CCCC(Nc2ccc(F)c(F)c2)C1 (stereo unspecified) | / | 12 | 0.2 | / | /

A draw from above in order of molecular weight, descending:
SMILES | Mtb growth | Mtb betalactam | RecA splice inh | YopH inh | Arbovirus anti | others
Cc1cc(O)ccc1Nc1nc2ccccc2nc1Nc1ccc(O)cc1C | 8% | 15 | 3.8 | -7 | -39
Cn1cc(S(=O)(=O)N2CCC(C(N)=O)CC2)c(=O)n(C)c1=O | -6% | -3 | -3.0 | / | 3
CC(C)Nc1nc(Cl)nc(NC(C)C)n1 | -1% | -6 | 1.8 | -19 | -2

The main list resumes; the 2 compounds before the break are reprinted first.
SMILES | Mtb growth | Mtb betalactam | RecA splice inh | YopH inh | Arbovirus anti | others
O=C(N/N=C/c1ccc2c(c1)OCO2)c1sc2cccc(Cl)c2c1Cl | 48% | 57 | 1.9 | -25 | -21
O=C(CCn1cnnn1)N1CCCC(Nc2ccc(F)c(F)c2)C1 (stereo unspecified) | / | 12 | 0.2 | / | /
COc1ccc2[nH]c3c(=O)n(CCCCC(=O)N4CCC(C(N)=O)CC4)c(=S)[nH]c3c2c1 | -6% | -7 | -0.9 | -26 | -9
CN(Cc1ccc(Cl)cc1Cl)C(=O)c1cccc(S(=O)(=O)N2CCN(c3ccccc3)CC2)c1 | / | -6 | -1.8 | / | /
O=C(CCc1nc2ccccc2s1)Nc1ccccc1 | 18% | 5 | -0.5 | -5 | -14
CSc1ncc(Cl)c(C(=O)Nc2ccc(S(=O)(=O)N3CCOCC3)cc2)n1 | 6% | -2 | / | 0 | 3
Fc1ccccc1-c1nc(-c2ccc(Br)o2)no1 | / | -2 | 5.5 | / | /
CCC(=O)c1ccc(OC(=O)Cc2ccc(OC)cc2)cc1 | / | 4 | 12 | / | /
O=c1[nH]c(=O)n(CCc2ccc(F)cc2)c(O)c1C=NCCCN1CCOCC1 | -7% | -7 | -1.3 | -35 | 10
COc1cc(/C=C2/CCC/C(=C\c3cc(O)c(OC)c(Cl)c3)C2=O)cc(Cl)c1O | 1% | 2 | 26 | -18 | 6
OC1/C(=C/c2ccc(Cl)cc2Cl)N2CCC1CC2 (stereo unspecified) | -1% | -3 | -2.2 | / | 7
CCOC(=O)c1c(NC(=O)/C=C/c2ccc3c(c2)OCO3)sc(C)c1C | -6% | / | / | -24 | -8
COc1ccc(NC(=S)N(CCCN2CCOCC2)Cc2cn(C)c3ccccc23)cc1 | -2% | -2 | -0.2 | -17 | 13
C/C(=N\NC(=O)C12CCC(C)(C(=O)O1)C2(C)C)c1ccccc1O (stereo unspecified) | -10% | 52 | -7.0 | / | /
CCOC(=O)C(C(=O)OCC)C1N=C(N)N=C2Oc3ccccc3N21 (stereo unspecified) | 17µM* | 90 | 12 | -46 | -11
COc1ccc(NCc2nnc(SCC(=O)Nc3ccc(OC)cc3)n2C)cc1 | 9% | -1 | -0.9 | / | 2
CC(=O)Nc1ccc(S(=O)(=O)NCCSCc2ccccc2Cl)cc1 | 10% | -3 | 4.0 | -47 | 2
CCOc1ccccc1C(=O)NC(C(=O)Nc1ccccc1N1CCOCC1)C(C)C (stereo unspecified) | -1% | 2 | 2.9 | -40 | -3
Clc1ccc(-c2nnc(N3CCOCC3)o2)cc1 | -8% | -5 | -1.2 | / | /
O=[N+]([O-])c1cc([N+](=O)[O-])c(Oc2ccc(Cl)c3cccnc23)cc1NN1CCCCC1 | / | -9 | 12 | / | /
CCOC(=O)COc1cccc2c(=O)n(CC(=O)N3CCN(C(=O)OCC)CC3)ccc12 | 5% | -1 | 0.0 | -19 | 6 | Arbovirus anti repeat=9
O=c1c(C/C=C/c2ccccc2)c(O)nc2n1CCCS2 | -3% | 6 | -0.5 | -20 | 4
COc1ccc(S(=O)(=O)N2CCCCCC2)cc1N(C)S(=O)(=O)c1ccccc1 | 0% | 2 | 20 | -16 | 6
Cc1cc(=O)oc2c1ccc1ccccc12 | / | 2 | -2.6 | / | /
CC(NC(=S)Nc1ccc(S(=O)(=O)N2CCOCC2)cc1)C1CC2CCC1C2 (stereo unspecified) | 9% | 24 | 11 | -4 | -25
COC(=O)[C@@H]1CC[C@H](C)[C@@H](c2ccc(C)cc2)N1C(=O)c1ccc(/C=N/OCC[C@@H]2C=C[C@H](OC(C)=O)[C@@H](COC(C)=O)O2)cc1 | / | 3 | 2.9 | -24 | 7
Cc1nn(CC(=O)N2CCCc3ccccc32)c(C)c1[N+](=O)[O-] | -1% | -3 | 1.2 | / | -3

Continued.
SMILES | Mtb growth | Mtb betalactam | RecA splice inh | YopH inh | Arbovirus anti | others
CCOC(=O)c1ccc(/C=C2/C=C(c3ccccc3)N(c3ccc(Cl)c(C(=O)O)c3)C2=O)cc1 | 2% | 4 | 12 | -14 | -6
CCOC(=O)N1CCN(C(=O)COc2ccc(Cl)c(C)c2)CC1 | 14% | -4 | -0.7 | / | -1
Cc1sc2ncnc(NCc3cccnc3)c2c1C | 9% | -5 | -3.6 | / | 13
Cc1nc2ccccc2c(=O)n1-c1ccc(NS(=O)(=O)c2ccccc2)cc1 | / | -18 | 0.4 | / | /
CC(OC(=O)c1ccc(NS(=O)(=O)c2ccc3[nH]c(=O)[nH]c3c2)cc1)C(=O)Nc1cccc(Cl)c1Cl (stereo unspecified) | -6% | 21 | -2.1 | / | /
Cc1ccccc1Cn1nc(C)c(NC(=O)C(F)(F)F)c1C | -7% | 0 | -0.9 | -29 | 1
CCS(=O)(=O)C(=C1Nc2ccccc2N1)S(=O)(=O)CC | -7% | -4 | -0.7 | 31 | 2
O=S(=O)(c1ccccc1)N(Cc1ccccc1)c1ccccn1 | -6% | 1 | 0.2 | -5 | -10

Some of the compounds tested. The share of hits here may be higher or lower than overall.
